Screening results: PubChem BioAssay, several laboratories
Rce1 inh: yeast Rce1p protease inhibitors, primary screen, biochemical, fluorescence, cell-free homogeneous; CAAX prenyl protease 2 (Saccharomyces cerevisiae (strain ATCC 204508 / S288c)), Q03530; yeast membranes, quenched prenylated peptide cleavage fluorescence; calls only; 0.27% of 290,000 active; AID 2563, 2010;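 active = fall in fluorescence gain of 50% or more versus controls, with final raw signal at or below 3038400; inconclusive = same 50% fall but final raw signal above 3038400; inactive = fall in fluorescence gain under 50%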;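 note: plate controls were neutral control wells for no effect and wells lacking membranes for full effect; tested at 10 µM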
Target sequence (Q03530 whole entry, looked up): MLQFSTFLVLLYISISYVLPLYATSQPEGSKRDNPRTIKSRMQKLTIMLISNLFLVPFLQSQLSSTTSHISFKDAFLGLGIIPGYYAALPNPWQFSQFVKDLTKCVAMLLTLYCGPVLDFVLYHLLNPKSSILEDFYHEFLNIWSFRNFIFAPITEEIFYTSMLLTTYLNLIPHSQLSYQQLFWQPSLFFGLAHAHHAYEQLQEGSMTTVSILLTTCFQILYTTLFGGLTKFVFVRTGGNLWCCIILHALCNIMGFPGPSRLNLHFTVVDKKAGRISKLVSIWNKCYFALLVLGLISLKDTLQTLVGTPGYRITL
Env fusion inh: inhibitors of HIV-1 Env-driven cell-cell fusion, primary screen, HeLa-JRFL effector, CEM21 target cells, luciferase; inhibition, % at 12.3 µM; 1.1% of 360,000 active; AID 651610, 2012;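 active = mean replicate inhibition score of at least 50 and every replicate individually at or above 50; inconclusive = only one of the two criteria met; inactive = mean below 50 and not all replicates reaching 50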;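 note: 0% = plate neutral controls and 100% = maraviroc near 300 nM; one replicate is shown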
UUG fidelity: modulators of yeast start codon fidelity, primary screen, whole organism, S. cerevisiae, single point, plate reader | activity score, % at 18.7 µM | 0.13% of 350,000 active | S. cerevisiae UUG-firefly luciferase reporter, luminescence/redox ratio;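 active = replicate mean at a twofold rise or more, about +100% in these data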;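 note: firefly luciferase made from a UUG start codon reports start codon fidelity; reporter light over untreated wells divided by growth signal over untreated wells; some hits fall short of that in this replicate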
PABP polyA inh: PABP poly(A) RNA binding inhibitors, primary screen, biochemical, fluorescence polarization, uHTS; Polyadenylate-binding protein 1 (Homo sapiens), P11940; inhibition, % at 35 µM; 1% of 290,000 active;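 active = 50% or more with normal probe brightness, or confirmed in later tests; inconclusive = above 50% with abnormal brightness, or retests that disagree; inactive = below 50% or failed in later tests; about a fifth of its hits are not listed in these tables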;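 note: calls also rest on retests at 20 µM and on dose response follow-up; controls were probe without protein and protein plus probe with vehicle; some compounds called inactive have numbers as strong as hits; many hits fall short of the cut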
eIF4H inh: human eIF4H binding inhibitors, primary screen, translation initiation inhibitor project, biochemical, uHTS, fluorescence polarization; eIF4H fluorescence polarization binding assay; inhibition, % at 35 µM; 0.94% of 290,000 active; Eukaryotic translation initiation factor 4H (Homo sapiens), Q15056; AID 2012, 2009;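 active = 50% or more with normal probe brightness, or confirmed in later tests; inconclusive = above 50% with abnormal brightness, or retests that disagree; inactive = below 50% or failed in later tests; about a fifth of its hits are not listed in these tables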;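 note: calls also rest on retests at 20 µM and on dose response follow-up; 0% = protein and probe with vehicle and 100% = probe without protein; strong numbers were not always called active; many hits fall short of the cut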
MT1-MMP act inh: blockers of MT1-MMP proenzyme processing, primary screen, HT1080 RFP-PRO-GFP cells, GFP/RFP fluorescence. GFP/RFP ratio fluorescence, overnight; percent of plate control window, DMSO zero. Matrix metalloproteinase-14 (Homo sapiens), P50281. 0.061% of 360,000 active. GFP/RFP ratio change, % at 20 µM;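 active = GFP/RFP ratio change of at least 30% with cell ATP level not reduced by more than half and red fluorescence within 50% of control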; note: strong numbers were not always called active
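Assay system: HT1080 RFP-PRO-GFP cells. Benchmarks: DMSO vehicle wells and RFP-L50D-GFP reporter cell wells. Times: overnight cell settling, then overnight compound exposure, 37 °C, 5% CO2. Compound: 20 µM single dose, 1% DMSO. Read-out basis: GFP/RFP fluorescence ratio.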
CSC inhib: cancer stem cell viability inhibitors, primary screen, luminescence; cancer stem cell-like cells viability; inhibition, % at 7.5 µM; 1.1% of 300,000 active; AID 2717, 2010;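 active = mean at 75% or more and at least half the replicates too; inconclusive = mean and replicates disagree; tested in HMLE shEcad cells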;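 note: 0% = median of negative and 100% = median of positive control wells; the first replicate is given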
eIF4H inh retest: recorded beside eIF4H inh, whose call it bears; inhibition, %; compound at 20 µM; confirmation average;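 mean of two retest wells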
PABP polyA inh retest: second read-out of PABP polyA inh, no call of its own (marks repeat the call); inhibition, %; compound at 20 µM; confirmation repeats;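 mean of two retest wells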
MT1-MMP act inh RFP: second read-out of MT1-MMP act inh, no call of its own (marks repeat the call); RFP signal change, %; measured here: RFP expression control read;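 0 = vehicle wells; hits needed this value within 50% of zero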
Numbers without * were called inactive; i = inactive; ? = inconclusive; · = not tested or not shown. Some of the compounds tested; the hit share may differ from the screen's.

SMILES | Rce1 inh | Env fusion inh | UUG fidelity | PABP polyA inh | eIF4H inh | MT1-MMP act inh | MT1-MMP act inh RFP | CSC inhib | others
CC(=O)N(c1ccccc1)c1ccccc1[N+](=O)[O-] | · | 22 | -15 | · | · | 0 | 0 | ·
CCC(Oc1ccccc1)C(=O)Nc1nc2ccccc2[nH]1 (stereo unspecified) | i | -40 | -26 | -1 | -9 | 4 | 0 | 10
O=C(Cc1cccc(NC(=O)C2CCN(C(=O)C3CCC3)CC2)c1)Nc1cccc(C(=O)N2CCCC2)c1 | · | 15 | -1 | · | · | -3 | 2 | 3
Cc1ccc(NC(=O)C(=O)NCCN2CCN(C(=O)C(c3ccccc3)c3ccccc3)CC2)cc1 | i | · | -9 | 1 | -11 | -2 | -7 | 0
CC1=C(C)CC(C(=O)Nc2ccc(C(N)=O)cc2)C(C(=O)O)C1 (stereo unspecified) | i | 20 | -14 | -3 | -5 | -1 | 4 | -20
O=S(=O)(c1cccs1)N1CCCCC1 | · | 4 | -10 | · | · | 2 | 5 | ·
COC(=O)c1ccc(NC(=O)c2c(C(=O)Nc3ccccc3)sc3nc(C)cc(=O)n23)cc1 | i | 2 | · | 3 | -7 | -3 | 1 | -11
CCCCN(C(=O)NC(=O)Nc1ccccc1OCC)S(C)(=O)=O | i | -3 | -11 | 11 | -5 | 4 | -1 | 19
Cc1ccc(C(=O)NCCC(=O)N2CCOCC2)cc1 | i | -4 | -17 | 16 | -7 | 2 | 8 | 11
Cc1ccc(NC(=O)C2CCCN2S(=O)(=O)c2ccc(F)cc2)c(C)c1 (stereo unspecified) | i | -15 | -12 | 7 | 8 | -1 | 1 | -5
NNC(=O)c1[nH]c2ccc(Br)cc2c1-c1ccccc1 | i | -25 | · | -6 | -13 | -9 | -4 | 52
CC(=O)c1ccc(OC(=O)c2ccc(Br)o2)cc1 | i | 2 | -19 | -1 | -2 | 4 | 7 | -16
COc1cccc(OC)c1C(=O)NNC(=O)c1cccc(COc2ccc3c(c2)CCC3)c1 | i | 10 | 15 | 6 | -5 | 1 | -7 | -5
COc1ccc(C(=O)C2CCCN(C(=O)c3cccc(Cn4cccn4)c3)C2)cc1F (stereo unspecified) | i | 23 | 1 | 12 | -4 | -1 | -2 | -3
CC1CCCN(S(=O)(=O)c2ccccc2[N+](=O)[O-])C1 (stereo unspecified) | i | 5 | -10 | -3 | -1 | 7 | 3 | -4
Cc1cccc(N2C(=O)c3cccc(Oc4ccc(Cl)cc4)c3C2=O)c1 | i | 14 | · | 1 | 4 | 2 | 7 | -10
CCN(CC(=O)Nc1ccc2c(c1)OCCO2)C(=O)CCOc1ccccc1 | · | · | 1 | · | · | -4 | 0 | -2
O=C1C(O)=C(O)C(=O)c2ccccc21 | · | · | -9 | · | · | 3 | -2 | 0
COc1cc(C2CC(c3ccccc3)=NN2c2ccccc2)ccc1OCC(=O)O (stereo unspecified) | ? | 7 | 2 | 8 | 4 | 0 | -1 | 3
COc1ccc(C(=O)N/C(=C\c2ccccc2)C(=O)NC(CCSC)C(=O)O)cc1 (stereo unspecified) | i | -37 | -22 | -4 | 4 | 3 | 3 | -2

Filtered by structure: those above with four or more nitrogen atoms.
SMILES | Rce1 inh | Env fusion inh | UUG fidelity | PABP polyA inh | eIF4H inh | MT1-MMP act inh | MT1-MMP act inh RFP | CSC inhib | others
O=C(Cc1cccc(NC(=O)C2CCN(C(=O)C3CCC3)CC2)c1)Nc1cccc(C(=O)N2CCCC2)c1 | · | 15 | -1 | · | · | -3 | 2 | 3
Cc1ccc(NC(=O)C(=O)NCCN2CCN(C(=O)C(c3ccccc3)c3ccccc3)CC2)cc1 | i | · | -9 | 1 | -11 | -2 | -7 | 0
COC(=O)c1ccc(NC(=O)c2c(C(=O)Nc3ccccc3)sc3nc(C)cc(=O)n23)cc1 | i | 2 | · | 3 | -7 | -3 | 1 | -11

Additional entries.
SMILES | Rce1 inh | Env fusion inh | UUG fidelity | PABP polyA inh | eIF4H inh | MT1-MMP act inh | MT1-MMP act inh RFP | CSC inhib | others
CC(=O)C(N=Nc1ccccc1)(Sc1nnc(-c2ccccc2)n1-c1ccccc1)C(=O)Nc1ccccc1 (stereo unspecified) | i | -25 | -3 | -8 | -5 | -3 | -3 | 4
OC(COc1ccc2cc(Br)ccc2c1)Cn1ccnc1 (stereo unspecified) | i | -27 | -4 | -5 | -5 | 2 | -3 | 10
CC(C)CCn1c(N2CCN(c3cccc(Cl)c3)CC2)nc2c1c(=O)[nH]c(=O)n2C | i | -50 | -24 | -6 | -6 | 6 | 2 | 31
Oc1c(Br)cccc1/C=N/Nc1c(F)c(F)c(F)c(F)c1F | i | 36 | · | -4 | 0 | 0 | -26 | ·
CCOC(=O)CNC(=O)C1c2ccccc2Oc2ccccc21 | i | -10 | -12 | 2 | 77 | 1 | -1 | -11 | eIF4H inh retest=-2;PABP polyA inh retest=5
COc1ccccc1N1CCN(C2CCCN(Cc3c(F)cccc3F)C2)CC1 (stereo unspecified) | i | 1 | -11 | 0 | 8 | 1 | -5 | 5
Fc1cccc(CN2CCC(Cc3ccccc3)CC2)c1 | i | 12 | 1 | -14 | 6 | 1 | 2 | 23
Cc1nnc(N2C(=O)C(O)=C(C(=O)c3ccco3)C2c2ccc(C(C)(C)C)cc2)s1 (stereo unspecified) | i | · | -29 | 2 | 38 | -16 | 3 | 13
COc1ccc(CCN2C(=O)CSC2=Nc2ccc(C(C)C)cc2)cc1OC | i | 24 | -8 | 5 | -10 | 4 | -31 | 13
CC(C)Cc1nn2c(N)c(/C=C3\C=Nc4ccccc43)c(=O)nc2s1 | · | 3 | · | -4 | 0 | 5 | 7 | 7
O=C(COC(=O)c1ccc(Cl)c(S(=O)(=O)N2CCCC2)c1)NC1CCCC1 | i | · | 6 | 1 | -2 | 3 | 5 | ·
Cc1onc(-c2ccccc2)c1NC(=O)N(Cc1ccccc1)C(C)C | i | 5 | -18 | 3 | -12 | 0 | 1 | -9
COc1cccc(N2CCN(c3nc(-c4ccccc4C)cc(=O)[nH]3)CC2)c1 | i | -336 | -25 | -10 | 1 | 7 | -6 | ·
COc1ccccc1NC(=O)c1cc(S(=O)(=O)N2CCc3ccccc32)ccc1F | i | -2 | -23 | 16 | -8 | 5 | -3 | 2
CNC(=O)OCc1cccc(COC(=O)NC)n1 | i | · | -12 | 15 | -10 | 6 | 10 | -6
Cc1sc2nc(SCC(=O)NCc3cccs3)[nH]c(=O)c2c1C | i | -90 | -18 | 6 | 11 | 0 | -3 | 16
CCOC(=O)Nc1ccc(S(=O)(=O)Nc2cc(C)on2)cc1 | i | -9 | -13 | -5 | 2 | 3 | 0 | -17
Cc1ccc(-c2cc(C(=O)Nc3ccc(S(=O)(=O)N4CC(C)OC(C)C4)cc3)[nH]n2)c(O)c1 (stereo unspecified) | i | 21 | · | -61 | -22 | 5 | -5 | 0
CCN(CC(=O)Nc1c(F)cccc1F)C(=O)CNC(=O)c1ccc2ccccc2c1 | · | 4 | -7 | · | · | 3 | 4 | -6
O=C(CS(=O)(=O)Cc1ccccc1)NCc1ccccc1Cl | i | -2 | -6 | -5 | -23 | 1 | -1 | -2
NC(=O)NC(=O)C(Nc1ccc(N2CCCCC2)cc1)c1ccccc1 (stereo unspecified) | i | -11 | -43 | 0 | 9 | 5 | 7 | -1
CCN1CCC2(CC1)N=C(c1ccc(F)cc1)C(=S)N2C(=O)c1ccc(C(C)(C)C)cc1 | i | -10 | · | -5 | 6 | -6 | 0 | 9
COc1ccccc1NC(=O)C1C2C=CC(O2)C1C(=O)O (stereo unspecified) | i | · | · | 17 | -8 | · | · | -15
CCOc1ccc(C)cc1-n1nc2ccccc2n1 | i | -46 | 3 | -6 | -8 | 3 | 1 | -5
Fc1ccc(C2=CC(c3ccc(Br)o3)n3ncnc3N2)cc1 (stereo unspecified) | · | · | · | 6 | ? | -112 | -1 | -3
Cc1ccc(S(=O)(=O)Cc2ccc(C(=O)N3CCC(C)CC3)cc2)cc1 | i | 7 | -5 | -5 | 0 | 2 | -1 | -13
CC(CC(=O)OCC(=O)NC1CCS(=O)(=O)C1)c1ccccc1 (stereo unspecified) | · | 5 | -10 | · | · | -1 | 5 | ·
Cc1cccc(/N=C/c2c(O)[nH]c3ccccc23)n1 | · | · | · | 1 | 0 | 2 | 4 | 18
CCOc1ccccc1NC(=O)Nc1cc(OC)ccc1OC | i | 1 | -18 | 5 | 8 | 1 | 1 | 9
Cn1nc(C(F)(F)F)c(-c2ccccc2)c1N | i | 3 | · | -1 | -8 | 0 | -2 | -12
COc1ccccc1CCC(=O)OCC(=O)Nc1ccc(S(N)(=O)=O)cc1 | i | 0 | 0 | -6 | -2 | 3 | 2 | 2
Cc1ccc(S(=O)(=O)NNC(=O)C2COc3ccccc3O2)cc1 (stereo unspecified) | i | -4 | 1 | -11 | -1 | -3 | 2 | -1
Brc1ccc(-c2cn3c(n2)SCC3)cc1 | i | -67 | -16 | -3 | 0 | 8 | -14 | -14
O=C(Cn1c(=O)oc2ccccc21)Nc1ccccc1N1CCOCC1 | · | -5 | -16 | -12 | 17 | -4 | -2 | -2
COCCn1c(C)cc(C(=O)COC(=O)c2ccc(Br)o2)c1C | · | -24 | · | -14 | 1 | 2 | 6 | -4
COc1ccc(N2CC(NC(=O)c3ccc4ccccc4c3)CC2=O)cc1OC (stereo unspecified) | i | -32 | · | · | · | 3 | -1 | -10
CC1(C)C2CC[C@]3(C)C(CC=C4[C@@H]5C[C@](C)(CO)CC[C@]5(C(=O)O)CC[C@]43C)[C@@]2(C)CC[C@@H]1O (stereo partly specified) | i | · | 7 | · | · | 2 | -1 | -4
Cc1cccc(Oc2ncnc3onc(C)c23)c1 | i | · | -13 | 3 | -8 | -2 | 5 | -3
COC(=O)CSc1nnc(-c2ccc(S(=O)(=O)N3CCCCC3)cc2)o1 | i | -15 | 3 | -9 | -11 | 1 | -2 | -13
Cc1nc2c(C#N)cnn2c2c1CCN(Cc1ccccc1)N2C | i | -8 | 7 | -10 | 12 | -11 | -1 | -12
CCc1ccc(C(C(=O)NC2CCCCC2)N(C(=O)c2csnn2)C2CC2)cc1 (stereo unspecified) | i | 8 | -5 | 8 | -10 | -3 | 3 | -15
Cc1cccc(N(C(=O)Cc2cccs2)C(C(=O)NCc2ccco2)c2ccncc2)c1 (stereo unspecified) | i | 19 | · | -9 | -4 | 0 | 0 | 5
COC(=O)c1c(NC(=O)COC(=O)CCNS(=O)(=O)c2ccccc2)sc(C)c1C | i | -7 | 15 | 3 | -9 | 2 | 3 | -10
COc1ccc(C)cc1NC(=O)C1CCCN1S(=O)(=O)c1ccccc1F (stereo unspecified) | · | 8 | -4 | · | · | -10 | 4 | ·
O=C(O)c1ccc(Cn2c(=S)[nH]c3cc(Cl)ccc3c2=O)cc1 | i | -23 | · | 2 | 0 | 1 | 6 | -4
Cc1cc(C)c(OCCOCCN2CCN(C)CC2)c(Cl)c1 | · | 8 | -4 | 2 | 3 | -2 | -6 | 55
